Screening data deposited in PubChem BioAssay by several laboratories.
Ecoli growth: E. coli growth inhibition, primary screen, OD600 | Escherichia coli growth, 23 h; hits give low values | OD600 absorbance (no concentration beside the values) | hit rate 0.21% among 330,000 | AID 1053175, 2014;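 active = OD600 absorbance below the run mean of sample wells minus 3.6 SD, in any replicate, cut at about 0.56 in these data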;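 note: stock transfer was 300 nL into about 60 µL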
AF4-AF9 inh: inhibitors of AF4 peptide binding to AF9, primary screen, biochemical, AlphaScreen, biotin-AF4 peptide, FLAG-AF9, single point; inhibition, % at 10 µM; hit rate 0.47% among 350,000;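 active = every replicate reaching a set inhibition limit, whatever the replicate mean, cut at about 25% in these data; inconclusive = mean inhibition reaches that limit but some replicates miss it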;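 note: 0% = plate neutral control median and 100% = total signal loss; the record names both 10 and 1 µM as test concentration; the first replicate is given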
Ecoli rRNA inh: reduced GFP signal of wild-type E. coli, primary screen, bacterial rRNA inhibitor project, GFP/RFP fluorescence, OD600, single point; E. coli WT GFP vs humanized-ribosome RFP mutants, 24 h; hits give low values; DMSO median 0, no signal -100; GFP signal change (wild-type ribosome), % (no concentration beside the values); hit rate 1.6% among 350,000; AID 720706, 2013;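 active = significant combined selectivity score with lowered wild-type GFP, culture density cut under 30%, mutant RFP and density less affected; inactive = any of these conditions unmet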; note: one replicate is shown; some compounds called inactive have numbers as strong as hits
Vif A3G: inhibitors of Vif binding to APOBEC3G peptide, primary screen, biochemical, TR-FRET, GST-Vif 1-94, biotin-A3G peptide, dose response retest (AID 1117319); inhibition, %; hits with a dose series show IC50 in µM; hit rate 0.57% among 260,000; Virion infectivity factor (Human immunodeficiency virus type 1 group M subtype B (isolate …; TR-FRET GST-Vif / biotin-A3G peptide binding; higher % means a stronger effect; test concentration not given here; strong numbers were not always called active;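 active = above the screen mean plus three standard deviations and confirmed in dose response; inconclusive = results disagree or hit not tested in dose response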;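 note: Vif residues 1-94 fused to GST binding biotinylated APOBEC3G peptide 110-148; 0% = full assay without inhibitor and 100% = GST in place of GST-Vif; retest series ran down from 100 µM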
HNF4A DNA FP: change in binding of human HNF4A to DNA, primary screen, biochemical, fluorescence polarization, FITC-DNA; 1 h; activity change, % at 10 µM; hit rate 0.3% among 360,000; Hepatocyte nuclear factor 4-alpha (Homo sapiens), P41235; in the data active = activity change above about 30%, passing the limit was not always enough;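 note: controls were the assay level and a saturating level of protein; the project sought stronger binding though the title names inhibitors; some compounds called inactive have numbers as strong as hits; positive values seem to mean higher polarization but the record does not say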
Target sequence (P41235 whole entry, looked up): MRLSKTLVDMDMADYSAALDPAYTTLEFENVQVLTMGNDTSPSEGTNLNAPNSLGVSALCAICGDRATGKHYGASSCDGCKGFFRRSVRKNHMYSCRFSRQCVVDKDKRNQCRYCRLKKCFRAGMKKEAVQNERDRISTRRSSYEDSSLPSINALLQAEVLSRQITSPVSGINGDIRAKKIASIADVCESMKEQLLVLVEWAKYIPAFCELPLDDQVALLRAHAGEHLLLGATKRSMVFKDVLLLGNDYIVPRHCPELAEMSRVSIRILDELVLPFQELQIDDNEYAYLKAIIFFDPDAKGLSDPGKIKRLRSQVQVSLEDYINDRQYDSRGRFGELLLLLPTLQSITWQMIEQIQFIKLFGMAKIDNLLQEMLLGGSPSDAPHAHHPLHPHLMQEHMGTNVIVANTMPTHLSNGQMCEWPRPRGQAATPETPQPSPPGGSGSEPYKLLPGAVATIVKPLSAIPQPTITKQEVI
ALR H2O2 inh: inhibitors of human ALR sulfhydryl oxidase, primary screen, biochemical, H2O2 detection, HRP-luminol luminescence, single point; FAD-linked sulfhydryl oxidase ALR (Homo sapiens), P55789; purified ALR, DTT oxidation; inhibition, % (test concentration not listed); hit rate 3.8% among 290,000; AID 485317, 2010;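 active = mean and each replicate at 75% or more; inconclusive = only one of the two met; inactive = neither met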;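 note: stock transfer was 7.5 nL into about 7.5 µL; 0% = neutral wells and 100% = wells with inactivated enzyme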
Target sequence (P55789 whole entry, looked up): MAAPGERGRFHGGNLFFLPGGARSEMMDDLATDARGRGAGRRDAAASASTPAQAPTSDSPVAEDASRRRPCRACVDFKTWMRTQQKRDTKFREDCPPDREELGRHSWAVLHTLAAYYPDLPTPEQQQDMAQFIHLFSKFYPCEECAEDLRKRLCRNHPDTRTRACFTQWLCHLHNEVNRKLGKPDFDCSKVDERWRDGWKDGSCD
FGF22 binding: binders of human FGF22 protein, primary screen, FGF22 synaptogenesis inhibitor project, biophysical, thermal shift, single point. recombinant FGF22 thermal shift, SYPRO orange fluorescence; percent of sucrose octasulfate shift, DMSO zero. Fibroblast growth factor 22 (Homo sapiens), Q9HCT0. calls only at 9.99 µM. hit rate 1.5% among 340,000;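 active = melting point raised past a set limit in the mean and every replicate; inconclusive = no clear call; three in four hits are not shown here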
Target sequence (Q9HCT0 whole entry, looked up): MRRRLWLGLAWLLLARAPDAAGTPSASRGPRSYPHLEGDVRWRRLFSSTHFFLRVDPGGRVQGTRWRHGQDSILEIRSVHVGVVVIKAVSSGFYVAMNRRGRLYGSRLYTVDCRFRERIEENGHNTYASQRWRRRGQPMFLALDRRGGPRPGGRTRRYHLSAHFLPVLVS
Ecoli rRNA inh OD600: second read-out of Ecoli rRNA inh, no call of its own (marks repeat the call); OD600 change, %; measured here: OD600 growth;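 optical density of the mix in the first replicate; 0 = DMSO median and -100 = no signal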
Ecoli rRNA inh RFP: recorded beside Ecoli rRNA inh, whose call it bears; RFP signal change, %; measured here: RFP humanized mutant strains;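 first replicate; 0 = DMSO median and -100 = no signal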
* = called active by the depositor; i = inactive; ? = inconclusive; . = not tested or not shown; & = joins results of further samples. These rows are one share of the data. The share of hits here may be higher or lower than overall.

SMILES	Ecoli growth	AF4-AF9 inh	Ecoli rRNA inh	Ecoli rRNA inh OD600	Ecoli rRNA inh RFP	Vif A3G	HNF4A DNA FP	ALR H2O2 inh	FGF22 binding
C[C@@H]1CN([C@H](C)CO)C(=O)c2cccc(NC(=O)CCCCCC(=O)Nc3ccccc3N)c2O[C@@H]1CN(C)S(=O)(=O)c1cn(C)cn1	.	-0.1	1	8	-1.9	.	.	.	i
CCOC(=O)C1CCN(C(=O)CN(c2cccc(OC)c2)S(=O)(=O)c2ccccc2)CC1	0.75	.	.	.	.	23%	0.9	-5	.
COc1ccc(C(=O)NCCc2ccc(F)cc2)cc1OC	0.69	-15	0	5	-0.8	-3%	2.6	9	i
O=C(C1CCC(=O)N(C2CCCC2)C1)N1CCN(Cc2cccc(F)c2)CC1 (centres undefined)	0.72	-2.1	-1	0	1.0	.	-3.7	-8	i
COc1ccccc1CNC(=O)C[C@@H]1CC[C@H](NC(=O)CC2CC2)[C@@H](CO)O1	.	-1.9	-1	4	-6.2	.	.	.	i
CC(=O)Nc1ccc(NC(=O)c2cc(=O)c3ccc(C)cc3o2)cc1	0.67	-1.7	6	11	0.8	-2%	0.3	5	i
Cc1c(C(=O)N2CCN(Cc3ccccc3)CC2)oc2c1C(=O)CCC2	0.7	3.9	16	18	4.1	-7%	2.7	-13	i
CCOC(=O)C1CCCN(C(=O)c2sc3nc(-c4ccc(F)cc4)cn3c2C)C1 (centres undefined)	0.66	.	.	.	.	6%	3.9	9	.
Cc1cc(-c2nsc(=O)o2)c(S(C)(=O)=O)s1	0.69	.	.	.	.	0%	2.6	99*	.
NS(=O)(=O)c1ccc(NC(=S)NC(=O)c2ccco2)cc1	0.63	.	.	.	.	15%	-0.1	18	.
O=C(Nc1ccccc1C(=O)N1CCCCC1)c1ccccc1C(F)(F)F	0.71	-3.4	11	11	2.3	.	-2.0	2	i
CCOc1ccc(NC(=S)NC23CN4CN(CN(C4)C2)C3)cc1	0.69	2.3	14	17	5.0	0%	1.4	7	i
O=C(CCCc1nc2ccccc2s1)Nc1ccc(N2CCOCC2)cc1	0.67	3.9	-10	-11	-12	9%	2.3	21	i
COc1cccc(-c2ccc3c(c2)[C@H]2[C@H](CCN2C(=O)c2ccc(F)cc2)[C@@H](CO)N3)c1	.	2.3	-12	-61	22	.	.	.	i
CCc1cccc(Nc2cc(C)nc3nc(C)nn23)c1	0.68	-2.5	-2	2	0.2	33%	1.2	.	i
CC(C)C#Cc1ccc2c(c1)O[C@@H](CN(C)C(=O)CC1CC1)[C@H](C)CN([C@H](C)CO)S2(=O)=O	.	3.6	-7	-29	6.3	.	.	.	i
COc1ccc(C2=NOC(C(=O)Nc3c(C)n(C)n(-c4ccccc4)c3=O)C2)cc1OC (centres undefined)	0.74	-1.0	5	9	-0.1	-1%	-4.0	4	i
CC(C)COc1nc2ccccc2nc1C(C#N)C(=O)NC1CCCCC1 (centres undefined)	0.82	.	.	.	.	0%	1.9	-1	.
CCCNC(=O)C1(C)CCN(Cc2ccc(OCc3ccccc3)cc2)C1 (centres undefined)	.	1.8	-2	-10	4.2	.	3.1	.	i
CC(NC1CCCC1)C(=O)Nc1ccccc1-c1ccccc1 (centres undefined)	0.68	.	.	.	.	2%	-5.4	-10	.

Another view of 3 compounds above.
canonical_smiles,Ecoli growth,AF4-AF9 inh,Ecoli rRNA inh,Ecoli rRNA inh OD600,Ecoli rRNA inh RFP,Vif A3G,HNF4A DNA FP,ALR H2O2 inh,FGF22 binding
COc1ccccc1CNC(=O)C[C@@H]1CC[C@H](NC(=O)CC2CC2)[C@@H](CO)O1,.,-1.9,-1,4,-6.2,.,.,.,i
CCOC(=O)C1CCCN(C(=O)c2sc3nc(-c4ccc(F)cc4)cn3c2C)C1 (centres undefined),0.66,.,.,.,.,6%,3.9,9,.
Cc1c(C(=O)N2CCN(Cc3ccccc3)CC2)oc2c1C(=O)CCC2,0.7,3.9,16,18,4.1,-7%,2.7,-13,i

(further entries)
SMILES	Ecoli growth	AF4-AF9 inh	Ecoli rRNA inh	Ecoli rRNA inh OD600	Ecoli rRNA inh RFP	Vif A3G	HNF4A DNA FP	ALR H2O2 inh	FGF22 binding
O=[N+]([O-])c1ccc(COP(=O)(O)OCc2ccc([N+](=O)[O-])cc2)cc1	0.64	-2.6&-6.4	1	6	-2.3	.	6.2&4.4	5	i
N=C1/C(=C\c2ccc(SCc3ccco3)o2)C(=O)N=C2SC=NN12	0.72	.	.	.	.	1.2µM*	17	70	.
CCC(C)NC(=O)c1cc2c(=O)[nH]c3ccc(C)cc3c2s1 (centres undefined)	0.67	-2.5	-15	-16	-0.4	-7%	0.9	72	i
O=C(C[C@H]1CC[C@H]2[C@@H](COC[C@H](O)CN2Cc2ccc(F)cc2)O1)N1CCc2ccccc2C1	.	-0.1	-4	-16	3.8	.	.	.	i
COc1ccc(-n2cnc3cc(NS(=O)(=O)c4ccc(C)cc4)ccc32)cc1	.	.	.	.	.	15%	9.4	1	.
Cn1ccc(-c2ccccc2)n1	0.72	-1.4	5	6	4.2	3%	0.6	-5	i
COc1cc(C(=O)NCCOc2ccc(C)c(C)c2)cc(OC)c1OC	0.68	0.9	-15	-23	4.5	.	-0.2	-6	i
Cc1nc(C)c(C(=O)OCC(=O)Nc2cccc(C)c2C)s1	0.66	1.3	13	18	1.7	21%	-0.1	-4	i
C[C@H]1CN([C@@H](C)CO)C(=O)Cc2cc(NS(=O)(=O)c3cccs3)ccc2O[C@@H]1CN(C)Cc1ccc(C(=O)O)cc1	.	-1.8	-3	6	-1.5	.	.	.	i
COc1cccc(C(=O)Nc2ccc3c(c2)OC[C@H](C)NC[C@@H](C)[C@@H](OC)CN(C)C3=O)c1	.	-2.1	2	2	0.1	.	.	.	i
Clc1ccc(-c2cn(-c3nc4ccccc4s3)nn2)cc1	.	-3.1	5	18	1.4	.	3.9	.	i
CS(=O)(=O)N1CCC(NC(=O)Cc2ccccc2)CC1	0.71	.	.	.	.	-1%	-3.3	-9	.
CCCCCC1CCC(C(=O)O)CC1 (centres undefined)	0.68	.	.	.	.	-7%	0.2	.	.
CC(C)NC(=O)N(C)C[C@H]1Oc2c(NC(=O)c3nc4ccccc4s3)cccc2C(=O)N([C@@H](C)CO)C[C@@H]1C	.	-2.7	1	7	-0.3	.	.	.	i
CC(C)Oc1ccc(C2CC(=O)N(c3ccc(N(C)C)cc3)C2=O)cc1 (centres undefined)	0.77	.	.	.	.	-3%	-3.6	-8	.
NC(=O)CCS(=O)(=O)CCN1CCN(S(=O)(=O)c2ccc3c(c2)CCC3)CC1	0.66	-22	4	2	0.7	-3%	3.6	.	i
COC(=O)CN(c1ccc2c(c1)OCO2)S(=O)(=O)c1c(C)[nH]c(=O)[nH]c1=O	0.67	-0.3	2	8	-2.6	.	1.7	-11	i
CCOC(=O)CN1C(=O)C(O)(CC(=O)c2cccc(OC)c2)c2ccccc21 (centres undefined)	0.69	.	.	.	.	-4%	-2.8	1	.
CCOC(=O)c1ccc(C(=O)OCC)nc1	0.69	.	.	.	.	6%	3.9	-16	.
COc1ccc2c(c1)CCCC(Br)C2=O (centres undefined)	.	0.7	3	2	3.0	12%	0.0	.	i
COc1ccc(/C=N/Nc2nc(-c3ccc(C)cc3)c(NC(C)=O)s2)cc1	.	4.8	.	.	.	10%	4.4	2	i
Fc1ccc(-c2nc3ccccc3[nH]2)cc1	0.65	-4.3	4	-1	-0.1	-3%	1.1	.	i
CC(=O)c1cccc(OCc2cc(C(=O)N(C)Cc3cnccn3)no2)c1	0.69	4.4	9	10	2.5	.	4.8	3	i
CCOC(=O)c1cc(-c2ccccc2)n(CC(=O)Nc2cc(OC)cc(OC)c2)c1C	0.72	.	.	.	.	9%	0.3	.	.
CC(=O)c1cn(-c2ccc(Cl)cc2)c(=O)n(Cc2ccc(F)cc2)c1=O	0.69	0.1	9	12	-2.3	.	-1.9	-2	i
CN(C)C(=O)NC(Nc1ccc(Cl)cc1Cl)C(Cl)(Cl)Cl (centres undefined)	0.7	.	.	.	.	10%	2.9	-19	.
Cc1ccc(N2CC(=O)N(NC(=O)c3sc4nc(C)cc(C)c4c3N)CC2=O)cc1	0.72	-2.1	16	4	-0.9	-19%	-1.4	31	i
CC(C)N(C(=O)[C@H]1CC(CC(=O)NCCCn2ccnc2)C(=O)N2CCc3c([nH]c4ccccc34)[C@]12C)C(C)C (some centres undefined)	0.66	0.6	4	3	0.9	4%	-1.3	-1	i
CC(C)NC(=O)Nc1ccc2c(c1)C(=O)N([C@@H](C)CO)C[C@H](C)[C@@H](CN(C)C(=O)C1CCCCC1)OCCCC[C@@H](C)O2	.	-2.0	-2	2	0.0	.	.	.	i
Cn1c(N)c(C(=O)COC(=O)/C=C/c2ccccc2Cl)c(=O)n(C)c1=O	0.65	?	5	14	0.4	-4%	-1.2	0	i
C=CCn1c(Oc2ccccc2F)nc2c1c(=O)n(C)c(=O)n2C	0.64	-1.2	-3	-8	-1.2	.	4.8	1	i
O=C(NC1CCCCC1)c1ccc(COCC(F)(F)F)o1	0.75	.	.	.	.	3%	2.0	21	.
Cc1nc2c(S(=O)(=O)c3ccccc3)cnn2c(C)c1C	0.68	-1.1	9	3	-11	21%	4.4	.	i
CCC(C)C1NC(=S)N(C2CCCCC2)C1=O (centres undefined)	0.7	.	.	.	.	-3%	0.5	2	.
N=c1n(CCN2CCCC2)c2ccccc2n1CC(O)c1ccc(Cl)c(Cl)c1 (centres undefined)	0.68	14	0	-7	-0.1	.	3.5	-6	.
CC1=CCC2C(=O)N(c3cccc(C(=O)Nc4ccccc4Cl)c3)C(=O)C2C1 (centres undefined)	0.7	-1.8	-16	-15	-1.4	.	-0.1	-16	i
Cc1cc(=O)oc2c(C)c(OC(C)C(=O)NCCCn3ccnc3)ccc12 (centres undefined)	0.59	-4.2	10	2	0.8	-2%	8.1	-2	i
COc1cccc(C(NC(C)=O)c2nc(-c3cccc(O)c3)cs2)c1 (centres undefined)	.	2.9	-61	-78	-20	.	-1.2	.	i
S=c1[nH]nc(COc2ccc(Cl)cc2)n1-c1ccc(Cl)cc1	0.66	-5.8	-7	-10	8.9	3%	1.0	85*	i
Cc1ccc([N+](=O)[O-])cc1NC(=O)C1CCCC1	0.71	0.5	6	8	5.2	.	0.0	0	i
O=C1CC(=O)Nc2cc(S(=O)(=O)N3CCOc4ccccc43)ccc2N1	0.8	-5.6	-2	-9	-4.3	.	0.8	-11	i
COc1ccc(S(=O)(=O)Nc2ccc3c(c2)C(=O)N([C@H](C)CO)C[C@H](C)[C@@H](CN(C)S(=O)(=O)c2cccs2)O3)cc1	0.7	2.1&2.0	-2&-10	-3&-9	-0.4&3.4	.	-2.7	-5	i
